# Screens (PubChem BioAssay)
# gsp ag – agonists of gsp mutant (McCune-Albright syndrome). 0.13% of 340,000 active. Potency, µM (titrated, usually from 76.9 µM), inactives show at the highest dose activation (cAMP increase), usual class: activators. gsp mutant cells, cAMP HTRF, 30 min; control for the full effect not named in the record; active = well fitted activation curve with a large enough effect; inconclusive = small, poorly fitted or top-dose-only effect, or another doubt; inactive = no such curve, though single readings can be large or run the other way; cell line not stated here;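 further: phosphodiesterase inhibitor Ro 20-1724 added with compounds to block cAMP breakdown; potency means the concentration at half of the fitted maximal effect; nearly all actives have a fitted effect of over 60% in size; about a fifth of the inactives were tested at one dose only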
#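 Cells in DMEM/10% FBS with G418 were pretreated with compounds in DMSO plus […] (300 uM stock) for 30 min at 37C. cAMP was measured by HTRF (cAMP-d2 plus anti-cAMP antibody-K) after 30 min at room temperature.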
# gsp antag – antagonists of gsp mutant (McCune-Albright syndrome); gsp-mutant cells, cAMP HTRF, 30 min; control for the full effect not named in the record; Potency, µM (top dose mostly 76.9 µM), for inactives: top-dose activity change, negative = inhibition, most hits filed as inhibitors; 0.4% of 340,000 active; AID 624288; active = falling curve of any shape with a large fitted effect; inconclusive = falling curve, mostly with a smaller effect; inactive = flat or rising curve; cell line not stated here;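 further: intracellular cAMP measured with PDE inhibitor Ro 20-1724 present during compound exposure; potency means the concentration at half of the fitted maximal effect; on the % scale 0 is the no-effect control and ±100 the full control effect; nearly all actives have a fitted effect of over 65% in size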
#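 HTRF cAMP read-out (cAMP-d2 plus anti-cAMP antibody-K in lysis buffer, 30 min RT). Before lysis, cells are exposed to compounds with […] for 30 min at 37C in DPBS containing Ca/Mg, BSA and Tween 20.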
# ClpP mod – qHTS Assay for Activators of ClpP | Potency, µM (top dose mostly 57.5 µM), for inactives: top-dose activity change, negative = active | AID 651965, 2013 | purified B. subtilis ClpP, FRET peptide cleavage, 20 min | 1.9% of 340,000 active; active = well fitted falling curve with a large enough effect; inconclusive = small, poorly fitted or top-dose-only effect; inactive = no such curve, though single readings can be large or run the other way; further: potency means the concentration at half of the fitted maximal effect; the source files actives as falling curves though it sought activators and does not explain the sign; nearly all actives have a fitted effect of over 65% in size; many hits overshoot -100%
# Target sequence (P80244 whole entry, looked up): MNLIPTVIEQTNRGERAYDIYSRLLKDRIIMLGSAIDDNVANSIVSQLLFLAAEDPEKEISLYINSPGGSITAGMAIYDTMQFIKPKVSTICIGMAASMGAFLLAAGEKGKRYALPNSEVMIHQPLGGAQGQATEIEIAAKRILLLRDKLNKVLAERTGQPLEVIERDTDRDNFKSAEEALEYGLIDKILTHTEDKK
#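 Buffer: 100 mM Tris/HCl pH8, 100 mM KCl, 0.05% low protease BSA, 2.5% glycerol, 0.01% Tween-20. ClpP 10 microg/mL final; 20 min RT; delta FRET normalized to ADEP and DMSO controls.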
# Menin-MLL FL inh – displaces fluorescein MLL peptide from human menin. Fluorescence polarization, fluorescein-MLL peptide displacement from menin. FP activity change, % at 61.4 µM. 290,000 tested, under 10 active; inconclusive = falling polarisation curve, or a change in total fluorescence; inactive = total fluorescence flat and polarisation flat or rising; no compound was filed as active; the % refers to the polarisation; negative = inhibition;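 further: % of control where 0% means no effect; inhibitors lower the polarisation; unlabelled MLL peptide was the positive control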
# TRPML1 ag – human mucolipin-1 channel agonism; TRPML1-expressing cells, Ca2+ dye fluorescence, FDSS; host cell line not named in the record; reference of the full effect not given here; Q9GZU1; 0.12% of 410,000 active; AID 624414; activation, % (concentration not given with the values); in the data active = activation above about 50%; inconclusive = about 30% to 50%; inactive = below about 30%; further: 0% is about no effect; the text of the record puts the active cut at 80%
# Target sequence (Q9GZU1 whole entry, looked up): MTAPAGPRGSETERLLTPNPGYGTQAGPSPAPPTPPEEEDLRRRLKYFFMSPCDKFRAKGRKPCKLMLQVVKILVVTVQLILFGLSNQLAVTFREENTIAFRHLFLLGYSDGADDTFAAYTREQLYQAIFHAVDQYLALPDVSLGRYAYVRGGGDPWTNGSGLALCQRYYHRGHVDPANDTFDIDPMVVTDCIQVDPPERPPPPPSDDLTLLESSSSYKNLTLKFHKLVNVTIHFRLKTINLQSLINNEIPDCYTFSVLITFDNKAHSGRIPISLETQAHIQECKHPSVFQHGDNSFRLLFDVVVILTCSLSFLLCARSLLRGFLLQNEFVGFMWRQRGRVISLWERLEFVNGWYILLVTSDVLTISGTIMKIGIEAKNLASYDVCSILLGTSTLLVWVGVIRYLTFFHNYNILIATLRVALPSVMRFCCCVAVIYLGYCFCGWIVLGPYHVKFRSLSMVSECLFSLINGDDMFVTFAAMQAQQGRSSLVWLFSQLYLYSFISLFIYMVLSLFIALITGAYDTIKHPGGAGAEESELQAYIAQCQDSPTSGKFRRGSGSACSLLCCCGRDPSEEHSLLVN
#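 In this qHTS format, compounds were pin-transferred onto Ca8-dye-loaded TRPML1-DL cells induced with Tet overnight, and intracellular Ca2+ fluorescence was recorded kinetically for 110 s after a 10 s baseline. A subsequent 4uM final 54-4 (EC80) addition followed by a second 110 s read served as the antagonist phase.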
# TRPML1 blocker – blocks the human TRPML1 channel | Q9GZU1 | TRPML1-inducible cells, Ca2+ dye fluorescence, FDSS; stronger effect = lower value; inhibition of EC80 agonist-evoked calcium signal | activity change, negative = inhibition, % (concentration not given with the values) | 0.02% of 390,000 active | AID 624415; in the data active means activity change below about -50%; inconclusive means about -30% to -50%; inactive means above about -30%;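 further: stimulus is agonist 54-4 at its EC80 concentration; on the % scale 0 is the no-effect control and ±100 the full control effect; compound concentration not given in the record; the text of the record puts the active cut at -80%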
#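 Calcium fluorescence in TRPML1-DL cells induced overnight with Tet: a 110 s read after compound pin addition, then a 110 s antagonist read after challenge with 54-4 at 4 uM final (EC80).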
# Starred values were filed as active, the others as inactive; ? = inconclusive; . = not tested or not shown; & = joins results of further samples; [ ] = dose if it differs, or a comment. Not a hit list. About 2.1% of those tested had a hit in this group.
SMILES,gsp ag,gsp antag,ClpP mod,Menin-MLL FL inh,TRPML1 ag,TRPML1 blocker
CCOC(=O)CN1C(=O)C(O)(C2CCc3ccccc3C2=O)c2ccccc21 (centres undefined),27%,10%,-0.3%,1.8,-0.3,21
CCCc1cc2c(cc1NC(=O)c1ccc(Br)cc1)OCO2,-22%,0%,-4.4%,-0.8,0.4,2
Oc1c(CN2CCCCC2)ccc2cccnc12,27%,5%,.,.,0.1,-15
CCCCNC(=S)N1CCN(CC)CC1,-10%,0%,.,0.8,-0.3,15
C[C@H](CO)N1C[C@H](C)[C@@H](CN(C)S(=O)(=O)c2cccc(F)c2)OCc2cn(nn2)CCCC1=O,-1%,.,-0.1%,.,0.0,9
O=C(O)C(Cc1ccccc1)N1C(=O)/C(=C/C=C/c2ccco2)SC1=S (centres undefined),25%[15.4 µM],-14%,.,?,0.7,-5
CC(=O)c1ccc(NC(=O)Nc2nnc(N3CCCC(C)C3)s2)cc1 (centres undefined),.,.,-3.2%,.,-1.2,-12
Cc1ccc(NS(=O)(=O)c2c(C)nc3sccn3c2=O)cc1C,4%,-2%,0.6%,0.1,-1.0,9
CC(C)(C)NS(=O)(=O)c1ccc(OCC(=O)Nc2ccc3c(c2)OCCO3)cc1,-27%,7%,0.8%,3.7,-0.2,3
CCc1ccc(NC(=O)c2cc(S(=O)(=O)NC3CCCC3)ccc2F)cc1,.,.,-2.9%,.,4.9,31
O=c1cc(CO)[nH]cc1OCc1ccccc1,-8%[15.4 µM],18%,.,-1.0,0.1,-3
O=C(c1cc2ccccc2oc1=O)N(Cc1cccc(Br)c1)C1CCS(=O)(=O)C1 (centres undefined),32%,-6%,.,-1.2,-1.0,3
CC1CN(S(=O)(=O)N(C)C)CCN1S(=O)(=O)N(C)C (centres undefined),-18%,2%,-0.2%,2.1,2.1,-6
Cc1nc(SCC(=O)NCC2CCCO2)[nH]c(=O)c1C (centres undefined),-1%[15.4 µM],4%,.,.,2.0,-14
CCCCN(CCCC)Cc1ccc(C(=O)NNC(=O)Nc2ccc(F)cc2)o1,-20%,10%,.,2.5,0.1,-6
CCc1ccc(C2C(C(C)=O)=C(C(=O)OC)Nc3nnnn32)cc1 (centres undefined),10%,-19%,14%,-1.2,0.2,-5
O=C(OCc1cc(=O)n2nc(C3CCCCC3)sc2n1)c1ccccc1Cl,.,.,1.3%,.,-1.1,-16
CCN(CC(=O)NCc1cccs1)C(=O)c1ccc(-c2ccc(F)cc2)o1,6%,3%,4.4%,.,-1.4,-3
Cn1c(CCN2CCCCC2)nc2cc(NC(=O)COc3ccccc3)ccc21,?,11%,-10%,0.1,0.3,-21
CCOC(OCC)P(=O)(c1ccccc1)c1ccccc1,-32%[inhibitor],-7%,-0.6%,-0.8,-0.3,3
COc1cc(C)c(N)cc1C(C)C,-16%,-1%,0.9%,2.7,-0.2,1
CCCSCCCNC(=O)Cn1cc2c(n1)CCCCC2,-15%,-2%,4.1%,-0.3,-0.1,0
O=C(Cn1ncn2c(cc3ccccc32)c1=O)NCc1ccco1,-14%,-2%,-16%,3.0,0.2,43
O=S(=O)(Nc1cc(Cl)ccc1N1CCOCC1)c1ccccc1Cl,2%,-10%,-2.1%,.,-0.7,-5
Cc1ccc(OC(C)C(=O)N=Nc2c(O)[nH]c3ccc([N+](=O)[O-])cc23)cc1 (centres undefined),-15%,?,1.3%,0.4,1.9,-5
CCn1cc(C(=O)NCCCN2CCC(C)CC2)c(=O)c2cc(S(=O)(=O)N3CCOCC3)ccc21,-14%,16%,-12%,-0.6,-0.1,-17
CCC(CO)Oc1cc(NCc2ccccc2Cl)c2ncn(C(C)C)c2c1 (centres undefined),.,-2%,-3.2%,.,0.0,38
COc1cc2c(cc1OC)[C@H](C)N(C(=O)CSc1nc(O)c(C(C)C)c(=O)[nH]1)CC2,.,-9%,-1.5%,-0.3,.,.
COc1ccc2cc3cc(C(=O)NCCN4CCN(Cc5ccccc5)CC4)oc3nc2c1,-11%,2%,31%,-1.5,3.9,-2
CCCc1cc(=O)[nH]c(SC(C)C(=O)Nc2ccc3c(c2)OCCO3)n1 (centres undefined),-36%[inhibitor],-28%,-0.2%,.,0.5,3
CCc1ccc(NC(=O)C(=O)NNC(=O)c2cccc(OC)c2)cc1,11%,-3%,.,-7.2,0.4,-3
Nc1ccc(Oc2ccc3c(c2)C(=O)NC3=O)cc1,-12%,-6%,-1.3%,-3.6,-0.8,-1
C=CCOc1nc(-c2ccncc2)nc2ccccc12,-1%,-1%,-3.2%,-2.2,1.5,14
O=C(Nc1nccs1)[C@@H]1CCCN1C(=O)c1cccs1,-11%[15.4 µM],.,.,1.2,0.0,7
CCn1cc(C(C)NC(=O)COc2ccc(Cl)cc2C)c(C)n1 (centres undefined),-8%,-11%,0.5%,-1.9,-0.8,16
O=C(COc1ccc(Cl)cc1Cl)OCn1nnc2ccccc2c1=O,?,14%,0.1%,5.2,1.2,3

# Continued, starting with the last two of the part before.
SMILES,gsp ag,gsp antag,ClpP mod,Menin-MLL FL inh,TRPML1 ag,TRPML1 blocker
CCn1cc(C(C)NC(=O)COc2ccc(Cl)cc2C)c(C)n1 (centres undefined),-8%,-11%,0.5%,-1.9,-0.8,16
O=C(COc1ccc(Cl)cc1Cl)OCn1nnc2ccccc2c1=O,?,14%,0.1%,5.2,1.2,3
CCOC(=O)c1sc(NC(=O)c2ccccc2OC)nc1C,-19%,1%,-7.1%,1.3,-1.2,6
O=C(NCCCN1CCCC1=O)c1cccc(NS(=O)(=O)c2ccccc2)c1,-26%,4%,35µM*,.,-0.8,-6
CC(=O)Nc1cc(C(=O)O)ccc1S(=O)(=O)c1ccc(Cl)cc1,-27%,6%,-4.0%,-4.4,0.1,6
COc1ccc(CNCc2cc(C)c(OC)cc2C)c(OC)c1,16%,13%,0.2%,-0.2,1.1,24
CC(=O)N1c2ccc(S(=O)(=O)N(C)CC(=O)N3CCCC3)cc2CC1C (centres undefined),14%,8%,1.6%,.,-1.1,13
CN(CC(=O)Nc1cccc(F)c1)C(=O)C1CC(=O)N(Cc2ccco2)C1 (centres undefined),-8%[15.4 µM],11%,.,.,-0.1,-2
COCCNC(=O)c1cc(S(=O)(=O)N2CCC3(CC2)OCCO3)ccc1F,12%,.,-1.8%,.,0.0,-1
CC(=O)c1cccc(NC(=S)NC(=O)c2ccc(C)cc2)c1,-3%[15.4 µM],-10%,.,0.0,2.1,-2
COc1ccccc1N1CCN(C(=O)/C=C/c2ccco2)CC1,-2%,1%,0.3%,11,-0.4,-1
COc1ccc(CCNC(=O)COC(=O)COc2c(C)cc(C)cc2C)cc1OC,20%,1%,-0.7%,1.4,1.8,10
CCC(=O)c1ccc(OCC(=O)OC(C)C(=O)NCc2ccc3c(c2)OCO3)cc1 (centres undefined),-13%,-18%,0.6%,.,-0.4,47
CCCNC(=S)N1CCN(Cc2ccc3c(c2)OCO3)CC1,?,5%,.,-4.1,-0.3,-8
O=C(C1CCN(CCc2ccccc2)CC1)N1CCOCC1,-11%[15.4 µM],5%,1.4%,.,-0.1,-6
Cc1ccc(NC(=O)c2cc3nc(-c4ccc5c(c4)OCO5)cc(C(F)(F)F)n3n2)cc1Cl,.,.,0.6%,.,-0.7,3
O=C(COc1ccc(Cl)cc1)Nc1ccc(-c2nc3ccccc3s2)c(O)c1,.,.,4.0%,.,1.0,5
O=C1c2ccccc2C(O)N1Cc1ccco1 (centres undefined),0%,11%,1.0%,0.1,0.1,4
COc1ccc(/C=C/C(=O)N2CCN(c3ccccn3)CC2)c(OC)c1OC,7%,-14%,-0.6%,-0.7,1.3,-13
CC[C@]12c3[nH]c4cc(-c5ccco5)ccc4c3CCN1C(=O)[C@@H](CC(=O)NC(C)(C)C)C[C@@H]2C(=O)N1CCN(C(=O)C2CC2)CC1,.,?,3.4%,.,2.8,0
O=C(CN1CCN(Cc2ccc(F)cc2)C1=O)NCc1cccs1,-23%,8%,0.7%,4.3,-0.8,5
Cc1cc(C)n(CC(=O)Nc2ccc(N3CCOCC3)c(Cl)c2)c(=O)c1C#N,?,8%,.,24,0.5,3
O=C(COC(=O)Cc1ccc(Cl)cc1)NCc1ccc(Cl)cc1,0%,.,-1.7%,.,-0.3,-1
O=C(OCc1ccccc1)/C(=C/c1ccc(Cl)cc1)NC(=O)c1ccccc1Cl,17%,-3%,-2.2%,-0.9,1.2,3
O=C(COC(=O)c1cccc(S(=O)(=O)N2CCOCC2)c1)NC1CCCCC1,-42%,.,2.4%,.,-0.3,-1
O=c1[nH]c(/C=C\c2ccccc2F)nc(O)c1[N+](=O)[O-],14%,6%,0.6%,2.8,0.4,1
CCCCC(=O)N1CCN(c2nc3ccc(Br)cc3s2)CC1,-18%,-19%,-1.1%,.,0.6,-14
CCOC(=O)c1ccc(NC(=O)Cn2cc(C(=O)c3cccs3)c3ccccc32)cc1,.,.,?,.,-0.2,-12
CCOc1ccc(-n2ccnc(SCC(=O)NCCc3ccccc3)c2=O)cc1,?,-18%,-18%,.,0.6,-12
COc1ccc(CCNC(=O)Cn2nnc(-c3ccc(OC)c(OC)c3)n2)cc1OC,-3%[15.4 µM],10%,1.4%,-0.6,-0.2,7
COc1cccc(OC)c1C(=O)Nc1c(C)n(C)n(-c2ccccc2)c1=O,-28%,1%,-1.2%,1.7,-0.2,-1
O=C(c1ccc(CS(=O)Cc2ccc(Cl)cc2)o1)N1CCN(c2cccc(Cl)c2)CC1 (centres undefined),36%,32µM*,0.4%,-6.0,0.3,18
CCOc1ccc(NC(=O)CSc2nnc(-c3ccc(C)cc3)c(-c3ccc(C)cc3)n2)cc1,.,.,-2.2%,.,1.6,-17
COc1ccc(CCNC(=S)NCCc2ccc(OC)c(OC)c2)cc1OC,-15%&-1%,-2%,1.7%,0.4,-0.9&2.6,-4&0
Cc1c(NC(=O)Cn2ccc([N+](=O)[O-])n2)c(=O)n(-c2ccccc2)n1C,-10%,11%,-0.3%,0.7,0.6,-27
CCN(c1ccccc1)S(=O)(=O)c1cccc(C(=O)NCC(c2cccs2)N(C)C)c1 (centres undefined),3%[15.4 µM],-8%,.,-0.6,-0.8,3
Cc1ccc(CNC(=O)CSc2nnc(CNC(=O)c3ccc(F)cc3)o2)cc1,2%,.,-0.9%,.,-0.9,-10
Cc1cc(C)nc(N(C#N)CN2C(=O)c3ccccc3C2=O)n1,5%,2%,-0.7%,-3.5,2.8,11
CCCn1c(CCC(=O)Nc2cccc(CC)c2)nc2cccnc21,.,.,-11%,.,2.6,24
